High-throughput results as filed in PubChem BioAssay.
VDR inh – inhibitors of human vitamin D receptor; AID 504847; P11473; VDR-SRC2-3 peptide fluorescence polarization, 2 h; 400,000 compounds, 0.93% hits; Potency, µM, for inactives: max response, negative = inhibition, actives largely listed as inhibitors; active = well fitted inhibition curve with a large enough effect; inconclusive = small, poorly fitted or top-dose-only effect, or another doubt; inactive = no such curve, though single readings can be large or run the other way; also: series mostly up to about 120 µM
Target sequence (P11473 whole entry, looked up): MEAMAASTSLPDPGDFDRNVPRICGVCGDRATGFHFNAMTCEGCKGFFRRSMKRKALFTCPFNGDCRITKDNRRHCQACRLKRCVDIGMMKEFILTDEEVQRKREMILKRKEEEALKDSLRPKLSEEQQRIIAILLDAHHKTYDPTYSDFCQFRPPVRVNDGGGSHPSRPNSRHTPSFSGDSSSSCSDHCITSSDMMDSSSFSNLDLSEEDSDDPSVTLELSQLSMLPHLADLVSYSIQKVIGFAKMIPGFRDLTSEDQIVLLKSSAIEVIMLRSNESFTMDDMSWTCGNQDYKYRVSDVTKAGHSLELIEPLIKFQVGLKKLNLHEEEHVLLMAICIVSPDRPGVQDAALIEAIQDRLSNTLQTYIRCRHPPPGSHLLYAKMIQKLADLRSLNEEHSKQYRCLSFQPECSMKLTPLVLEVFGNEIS
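Fluorescence polarization assay measuring small-molecule disruption of VDR binding to the coregulator peptide SRC2-3. Compounds were pin-transferred (23 nl) into the reagent mix and incubated 2 h at room temperature before reading.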
Starred values were filed as active, the others as inactive; ? = inconclusive; & = joins results of further samples. % is scaled to controls: 0 for no effect and ±100 for the full control effect; potency is read from the fitted curve at half-maximal effect.

Molecule	VDR inh
Cc1onc(-c2ccccc2)c1C(=O)Nc1ccc2c(c1)OCO2	2.4%
CCOc1ccc(-c2nc(N)ncc2Oc2cccc(OC)c2)c(O)c1	10.9%
CCCOc1ccc(C(=O)NNC(=S)NC(=O)c2cc(-c3ccccc3)nc3ccccc23)cc1	-8.6%
COc1ccc(/C=C2\Sc3ccc(C(=O)NC4CC4)cc3N(C)C2=O)cc1OC	17.5%
COc1cc(CCC(=O)OCC(=O)Nc2sccc2C(N)=O)cc(OC)c1OC	2.7%
CCN(CC(=O)Nc1c(F)cccc1F)C(=O)c1cn2ccccc2n1	-19.2%
CCOc1cccc(CN2CCC(n3nccc3NC(=O)C3CC3)CC2)c1O	-20.7%
CC(=O)Nc1ccc(NC(=O)CCS(=O)(=O)c2ccc3c(c2)CC(=O)N3C)cc1	-1.2%
N#Cc1ccc(-c2nnnn2-c2ccc3c(c2)OCO3)cc1	-9.8%
CC(=O)C1=C(O)C(=O)N(Cc2ccco2)C1c1ccccc1 (stereo not drawn)	-0.5%
CC(Oc1ccc2c(c1)c1ccnc3c4ccccc4c(=O)n2c13)C(=O)NCCN1CCOCC1 (stereo not drawn)	-9.4%
C/C(=N\NC(=O)Nc1ccccc1)c1ccc2ccccc2c1	4.6%
Cc1nc(NCCc2ccccc2)c(C#N)c(C)c1[N+](=O)[O-]	-17.2%
CN/C=C1\C(=O)C(C)(C)Oc2ccc3ccc(=O)oc3c21	4.9%
COCC(=O)N1CCC2(CC1)CN(c1ccncc1)C2	-1.3%
Cc1cc(C)cc(OCC(=O)N2CCN(c3ncccn3)CC2)c1	-12.6%
O=C(CN1CCCCCC1)N/N=C/c1ccc2ccccc2c1	-6.1%
COC(=O)c1sc2ncccc2c1OCc1cccc(Cl)c1	-7.4%
CC1=C(C(=O)OCc2ccccc2)C(c2ccsc2)C(C#N)=C(N)O1 (stereo not drawn)	8.8%
CCOC(=O)c1[nH]c(C)c(C(=O)OCCN2C(=O)c3ccccc3C2=O)c1C	-5.4%
Cn1nnc2c(N3CCN(c4ccc(F)cc4)CC3)ncnc21	4.5%
Cc1nn(-c2ccccn2)c2c1C(c1ccsc1)C1=C(CCCC1=O)N2 (stereo not drawn)	-3.8%
CCCn1c(=O)c2[nH]c(C3CCCC3)nc2n(CCC)c1=O	11.9%&3.2%
CC(=O)c1cccc(NC(=O)CN2C(=O)c3ccccc3C2=O)c1	-10.3%
Cc1ccc(NC(=O)NCCOCCn2c(=O)oc3ccccc32)cc1F	7.8%
Cc1ccccc1NC(=S)NC(=O)Cc1ccc(Cl)cc1	8.5%
Cc1ccccc1CSc1[nH]c(=O)ncc1C	9.1%
CC(=O)c1ccc(NC(=O)Cn2cnc(S(=O)(=O)N3CCCC3)c2)cc1	-13.2%
Oc1cccc(NC(=S)N=Nc2c(O)[nH]c3ccc(Br)cc23)c1	13.4%
COCCNc1cc(-c2ccccc2C(F)(F)F)ncn1	?
CCOc1ccc(NC(=O)NC23CC4CC(CC(C4)C2)C3)cc1	-1.5%
O=C(c1ccc(Cl)cc1)C1CCCN(Cc2cccn2-c2ccccn2)C1 (stereo not drawn)	7.5%
CCNC(=O)c1ccccc1NC(=O)c1cccc(S(=O)(=O)N2CCOCC2)c1	5.6%
C[C@@H]1CC[C@@]2(O[C@@H](CCO)C[C@H](O)[C@H]2O)O1	-12.0%
CCc1nnc(NC(=O)c2cc(S(=O)(=O)N3CCN(CC)CC3)ccc2Cl)s1	6.8%
CN(C)C(=O)C12CCC(C)(C(=O)C1Br)C2(C)C (stereo not drawn)	5.5%
CCc1ccc(CNC(=O)c2cc(-c3ccc(Br)s3)nc3ccccc23)cc1	-0.4%
CCS(=O)(=O)NCC(c1ccco1)N1CCN(c2ccc(OC)cc2)CC1 (stereo not drawn)	3.9%
N#Cc1c(-c2cccnc2)c2c([nH]c1=O)-c1ccccc1OC2	-2.7%
COc1ccc(S(=O)(=O)N2CCCCC2)cc1NC(=O)Cc1cccc(C(F)(F)F)c1	0.2%
Oc1ccc(-c2nnc(Nc3ccccc3)c3ccccc23)cc1	-4.2%
CC(OC(=O)c1nsc(Cl)c1Cl)C(=O)NC(C)(C)C (stereo not drawn)	7.8%
Cc1cc(=O)[nH]c(SCC(=O)/C=C2\N(C)c3ccccc3C2(C)C)n1	-2.8%
COC(=O)COc1ccc(S(=O)(=O)NCc2ccco2)cc1Cl	-6.1%
COc1ccc(CNC(=O)Cn2ncc3c4ccccc4n(Cc4cccc(Cl)c4)c3c2=O)cc1	-0.1%
Cc1cc[n+](CC(=O)c2cc3ccccc3oc2=O)cc1	2.6%
CC1CCN(Cc2c(C(=O)N/N=C/c3ccc(OC(C)C)cc3)nnn2-c2nonc2N)CC1	-1.5%
O=C(Cc1c[nH]c2ccccc12)NCc1ccccc1F	-10.4%
COc1ccc(-c2c(NC(=O)C(C)C)n(C)c3ccccc3c2=O)cc1	-2.9%
Cc1cnccc1CN(C)C(=O)CC1C(=O)NCCN1CC1CCCCC1 (stereo not drawn)	8.5%
Cc1ccccc1NC(=O)c1c([N+](=O)[O-])c(C(C)(C)C)nn1C	-3.9%
O=C(CSc1nnc(NC(=O)c2c(F)cccc2F)s1)NCc1ccco1	-9.0%
CCC(C)NC(=O)CSc1nc2c(sc(=S)n2-c2cc(Cl)ccc2OC)c(=O)[nH]1 (stereo not drawn)	?
COC(=O)c1ccc(-c2ncc[nH]2)cc1	-5.9%
COC(=O)c1c(NC(=O)Cc2coc3cc(C)ccc23)sc2c1CCC2	13.7%
CCOc1ccc(-c2ccc(SCC(=O)N3CCOCC3)nn2)cc1	-20.9%
COCCN(CCOC)S(=O)(=O)c1ccc(C(=O)Nc2sc3c(c2C(N)=O)CCCC3)cc1	-12.6%
COc1ccc(OCC(=O)N2CCC3(CC2)CC(=O)c2ccccc2O3)cc1	18.4%
c1nc(CCO[C@H]2CCCCO2)cc2cc3c(cc12)OCO3	2.2%
COCCNS(=O)(=O)c1ccc2c(c1)C(=NO)c1cc(S(=O)(=O)NCCOC)ccc1-2	2.0%

Later entries.
Molecule	VDR inh
Cc1cc(/C=N/NC(=O)c2ccncc2)c(C)n1-c1cccc(C(F)(F)F)c1	0.4%
COc1ccc(-c2noc(N3CCC(C(=O)N4CCN(c5cccc(C)c5C)CC4)CC3)n2)cc1	13.3%
CCCn1ncc(/C=N/O)c1C	-4.5%
Cc1ccc(-c2cc(C(=O)N(C)CC(=O)Nc3ccccc3Br)c3ccccc3n2)o1	-21.3%
Cc1nn(-c2ccccc2)c2c1P(=O)(O)/C(=C1\N(C)c3ccccc3C1(C)C)C=N2	19.5%
CN1CCC(=NNC(=O)CSc2ccc(Cl)cc2)CC1	-8.2%
Cc1[nH][nH]c(=O)c1C(c1ccc(Br)cc1)c1c(C)[nH][nH]c1=O	?
CCOC(=O)[C@@H]1CCN(Cc2ccccc2)C[C@H]1c1ccccc1	-15.6%
C=CCn1c(C)c(C(C)=O)c(N2CCN(C(c3ccccc3)c3ccccc3)CC2)nc1=S	-20.8%
CC(=O)Nc1cccc(NC(=O)c2ccccc2OCc2ccccc2)c1	-6.2%
NS(=O)(=O)c1ccc(-c2c(-c3ccccc3)sc3ccccc23)cc1	-8.2%
O=C(O)c1ccc(NS(=O)(=O)c2ccc(Cl)c(Cl)c2)cc1O	-16.4%
COc1ccc(Nc2ncc(C(=O)Nc3cc(Cl)c(OC)cc3OC)c3ccccc23)cc1	-1.7%
CCOC(=O)Cc1csc(NC(=O)c2cc(C)c(C)s2)n1	-3.9%
CCC(=O)N1CCc2cc(CNC(=O)Nc3cc(Cl)ccc3C(=O)OC)ccc21	13.9%
COCCn1c(SCC#N)nnc1-c1ccccc1	8.4%
CCOC(=O)c1c(NC(=O)COC(=O)c2nc(Cl)ccc2Cl)sc2c1CCC2	6.7%
CCN(CC)Cc1c(O)c(Cl)cc2c3c(c(=O)oc12)CCCC3	14.1%
CCC(C)c1ccccc1NC(=O)CN1CCN(C/C=C/c2ccccc2)CC1 (stereo not drawn)	7.7%
O=S(=O)(/N=C(/Nc1ccc(Cl)c(S(=O)(=O)N2CCOCC2)c1)c1ccc(F)cc1)c1ccccc1	-2.8%
Cc1cccc(C(=O)NCC(c2ccco2)S(=O)(=O)c2cccs2)c1 (stereo not drawn)	-3.6%
COC(=O)CSc1cc(C(=O)c2nccn2C)c2ccccc2n1	-7.3%
C=CCNC(=S)NNC(=O)CSc1nc2ccccc2s1	-12.3%
CS(=O)(=O)c1ccc(NS(=O)(=O)c2ccc3ccccc3c2)cc1	0.4%
CN(C)CCCN1c2ccccc2CCc2ccc(Cl)cc21	-4.4%&7.8%&-9.1%&9.5%&-5.1%
Cc1ccc(N(CC(=O)NCCSCc2ccco2)S(C)(=O)=O)cc1	9.8%
COc1cccc(-c2c(C(=O)N/N=C(\C)c3ccco3)nnn2-c2nonc2N)c1	-6.6%
CC(C)=CCN1CCN(Cc2cn(C(C)C)c3ccccc23)CC1CCO (stereo not drawn)	-2.1%
Cn1c(=O)oc2cc(S(=O)(=O)N3CCC(C(=O)N4CCN(c5ccc(Cl)cc5)CC4)CC3)ccc21	-13.7%
Cc1c(Cl)cccc1NC(=O)c1cccc(NC(=O)N2CCSc3ncccc32)c1	5.4%

Fetched by structure from the entries so far (three):
Molecule	VDR inh
Cc1ccc(-c2cc(C(=O)N(C)CC(=O)Nc3ccccc3Br)c3ccccc3n2)o1	-21.3%
c1nc(CCO[C@H]2CCCCO2)cc2cc3c(cc12)OCO3	2.2%
CC(=O)C1=C(O)C(=O)N(Cc2ccco2)C1c1ccccc1 (stereo not drawn)	-0.5%

Continuation.
Molecule	VDR inh
CCc1ccccc1NC(=O)c1cc(S(=O)(=O)NC2CCCC2)ccc1F	9.0%
O=C(CSc1nnc(NC(=O)c2ccc(F)cc2F)s1)NC1CCCC1	14.2%
O=C(COc1cccc(F)c1)Nc1nc(-c2ccncc2)cs1	-17.2%
CCN(CC)CCNC(=O)c1nn(-c2ccc(C)cc2)c(=O)c2c1c1ccccc1n2C	14.6%
CCOc1ccc(OCCCC(=O)Nc2cc(Cl)ccc2-n2cncn2)cc1	-7.5%
CCOc1cc(-c2nc(-c3ccccc3OC)no2)cc(OCC)c1OCC	21.7%
COc1ccc(S(=O)(=O)N2CCOCC2)cc1Br	1.6%
C[C@H](CO)N1C[C@H](C)[C@@H](CN(C)Cc2ccc(Cl)c(Cl)c2)Oc2c(NC(=O)C3CC3)cccc2C1=O	-4.7%
O=C(Nc1cccc(C(=O)N2CCCC2)c1)c1ccccc1	-11.0%
CCO[C@H]1OC(C(=O)N2CCOCC2)=C[C@@H](C)[C@@H]1CCCO	-14.2%
Cc1cccc(C(=O)NC(=S)Nc2ccc(S(=O)(=O)N3CCCCC3)cc2)c1	-15.9%
COc1ccc2oc(=O)c(C(=O)NCc3ccc(C)cc3)cc2c1	6.4%
NC(=O)N[C@H]1NC(=O)NC1=O	-1.1%
Cc1ccc(C)c(S(=O)(=O)N2CCN(C(=O)CCC(=O)c3cc(C)sc3C)CC2)c1	-7.9%
Cc1cc(O)cc2c1O[C@](C)(CCC[C@H](C)CCC[C@H](C)CCCC(C)C)CC2	12.2%&-3.5%
O=Nc1c(-c2ccccc2)cc2ccccn12	1.3%
Cc1ccc(S(=O)(=O)N2CCc3cc(C(=O)Nc4ccc(C)c(C)c4)ccc32)cc1	15.3%
O=C(NCc1ccco1)C(=O)NCC1OCCCN1S(=O)(=O)c1ccc(F)cc1 (stereo not drawn)	-12.3%
O=C(O)CSc1nnc(-c2cccc(S(=O)(=O)N3CCOCC3)c2)n1-c1ccc(F)cc1	-7.5%
CC1=CC(C)(C)N2C(=O)C3(C(C#N)=C(N)Oc4cc(O)ccc43)c3cccc1c32 (stereo not drawn)	-3.4%
COC(=O)C1C2CC3c4[nH]c5cc(OC)ccc5c4CCN3CC2CC(OC(=O)CC(C)=O)C1OC (stereo not drawn)	3.9%
CCC[C@H]1COCCS(=O)(=O)N1Cc1ccccc1F	-2.0%
O=C(O)CCc1ccc(-c2cccs2)n1NC(=O)c1ccc(Cl)cc1Cl	1.1%
COc1ccc(N2CCN(C3CCCN(C(=O)CSC)C3)CC2)cc1 (stereo not drawn)	0.8%
CC(C)(C)c1ccc(C2C(C(=O)c3ccco3)=C(O)C(=O)N2CC2CCCO2)cc1 (stereo not drawn)	-3.7%
CC(CNc1ccc([N+](=O)[O-])cc1)NC(=O)c1ccccc1Br (stereo not drawn)	10.0%
O=C(O)/C=C/c1ccc(OCc2cccc(F)c2)cc1	?
Cc1ccc(NC(=O)c2sc3ncn(Cc4cccc(F)c4)c(=O)c3c2C)c(Br)c1	-2.4%
CC(NC(=O)COC(=O)CCc1ccccc1)c1ccccc1 (stereo not drawn)	-12.5%
Cc1ccc(C)c(N2CCN(S(=O)(=O)c3cc4c(cc3Cl)NC(=O)CO4)CC2)c1	-5.9%
Cc1ccc2c(c1)nnn2C1CCN(CC(=O)NCc2ccccc2F)CC1	23.1%
COc1ccc(CNC(=O)CN(CCC(C)C)S(=O)(=O)c2ccc3c(c2)OCCO3)cc1	4.8%
COc1cccc(CNC(=O)Cc2ccc(NC(=O)N3CCSc4ncccc43)cc2)c1OC	5.6%
COCc1nnc(NC(=O)c2ccccc2Oc2ccccc2)s1	-8.3%

A portion of the library; the hit share may differ from the screen's.
